Screening data (PubChem BioAssay)
Vaccinia Venus = inhibitors of vaccinia virus (Venus reporter). 330,000 tested, 0.46% active. Vaccinia virus Venus reporter expression, fluorescence. Potency, µM (top dose mostly 36.5 µM), inactives show top-dose activity change, negative = inhibition, most hits filed as inhibitors; active means well fitted inhibition curve with a large enough effect; inconclusive means small, poorly fitted or top-dose-only effect; inactive means no such curve, though single readings can be large or run the other way; tested in A549 cells; note: nearly all actives have a fitted effect of over 30% in size; inactives centre near -10
Vaccinia mCherry = inhibitors of vaccinia virus infection (mCherry reporter signal). Vaccinia virus mCherry reporter infection, fluorescence; about a quarter of the inactives have no number. Potency, µM (series often up to 36.5 µM), for inactives: at the top dose activity change, negative = inhibition, usual class: inhibitors. 310,000 tested, 0.63% active. AID 720579; active = well fitted inhibition curve with a large enough effect; inconclusive = small, poorly fitted or top-dose-only effect; inactive = no such curve, though single readings can be large or run the other way; tested in A549 cells; note: nearly all actives have a fitted effect of over 35% in size; inactives centre near -10
* marks the source's active call; other numbers are inactive results; i = inactive; u = inconclusive; x = not tested or not shown; [ ] = remark or other dose. % is set by controls: 0 for no effect and ±100 for the full control effect; potency is the fitted concentration of half-maximal effect.

Preview, three compounds:
SMILES	Vaccinia Venus	Vaccinia mCherry
Cc1cccc(C(=O)NNC(=O)CSc2nnc(C3CC3)n2C)c1	-21%	-7%
O=C(Oc1ccc(-c2cnc3ccccc3n2)cc1)c1ccc(Cl)c([N+](=O)[O-])c1	-12%	x
O=C(NCCc1nc2ccccc2n1Cc1ccccc1)c1ccco1	0%	-15%

The list itself, from the first entry:
SMILES	Vaccinia Venus	Vaccinia mCherry
Cc1cccc(C(=O)NNC(=O)CSc2nnc(C3CC3)n2C)c1	-21%	-7%
O=C(Oc1ccc(-c2cnc3ccccc3n2)cc1)c1ccc(Cl)c([N+](=O)[O-])c1	-12%	x
O=C(NCCc1nc2ccccc2n1Cc1ccccc1)c1ccco1	0%	-15%
CCOC(=O)c1c(C)[nH]c(C(=O)OCC(=O)N2c3ccccc3CC2C)c1C (centres undefined)	-28%	u
CCCCC(=O)Nc1nc(C)c(-c2csc(Nc3ccccc3OC)n2)s1	u	u
Cc1ccc(C2=NN(CC(=O)NC(C)c3ccccc3)C(=O)CC2)cc1 (centres undefined)	-11%	-12%
Cc1ccc(NC(=O)Nc2ccc3c(c2)N(C)C(=O)CS3)cc1C	-12%	i
Cc1cccc(NC(=O)CSc2nc3c(oc4ccccc43)c(=O)n2-c2ccccc2)c1C	-7%	-10%
CS(=O)(=O)N1CCCC(C(=O)NCc2ccc(F)cc2Cl)C1 (centres undefined)	-6%	-12%
C[C@@H]1CC=C[C@@H]2[C@H]1C(=O)N(Cc1ccccc1)[C@H]2c1cccc(C#Cc2ccccc2)c1	-12%	-23%
CC(C)C[C@H]1CNC(=S)N1C[C@H]1CCCN1C[C@H](Cc1ccc(O)cc1)N1C[C@H](CC(C)C)N(CCc2ccccc2)C1=S	-29%	-15%
Cc1ccccc1NC(=S)Nc1ccccc1	0%	-15%
Cc1ccc(S(=O)(=O)N2CCOCC2)cc1C(=O)N1CCN(Cc2ccccc2)CC1	-9%	-20%
Cc1cc(NC(=O)C(C)(C)Oc2ccc(Cl)cc2)cc(-c2nc3ncccc3o2)c1O	-4%	-8%
CCC(c1nnc(SCC(=O)Nc2ccc(NC(C)=O)cc2)n1Cc1ccccc1)N(C)C (centres undefined)	-3%	i
O=C(OCC(=O)c1ccc[nH]1)c1ccc(Cl)c(Cl)c1	-1%	-1%
C[C@@]12C(=O)Nc3ccc(Br)cc3C(=O)N1[C@H]1c3cc(Br)ccc3OC[C@@H]1[C@@H]2c1ccccc1	u	-6%
CCN(CC)c1ccc(NC(=O)c2sc3ccccc3c2Cl)cc1	-11%	-10%
COCCCNCCOCCSc1ccc(Cl)cc1	-25%	-2%
COc1ccc(CNC(=O)/C(C#N)=C/c2cccc(OC)c2OC)cc1	-17%	-22%
COc1ccc(NC(=O)C2Cc3c(-c4ccc(Cl)cc4)ccnc3O2)cc1OC (centres undefined)	-19%	u
CCOC(=O)c1sc(NC(=S)NC(=O)c2ccco2)nc1C	-8%	-13%
O=C(CSc1nnc(-c2ccco2)n1Cc1ccccc1)c1ccccc1	-21%	x
COC(=O)c1ccc(NC(=O)CSc2nnc(CNc3ccc(F)cc3)n2C)cc1	-12%	-20%
COc1cccc(CN2CCC3(CCC(CNC(=O)c4ccco4)O3)CC2)c1OC (centres undefined)	5%	-7%
CCc1ccc(OCC(=O)N(Cc2ccccc2)C2CCS(=O)(=O)C2)cc1 (centres undefined)	3%	-3%
Cc1c(C)c2ccc(OC(C)C(=O)N3CC[C@@]4(O)CCCC[C@H]4C3)c(C)c2oc1=O (some centres undefined)	-6%	-5%
O=C(Nc1ccc(F)c(F)c1)C(c1ccccc1)N1Cc2ccccc2C1=O (centres undefined)	-12%	-4%
CC(=O)N(Cc1cccnc1)c1nc2c(C)cccc2s1	-13%	i
O=C(c1cc(Cl)ccc1[N+](=O)[O-])N1CCc2ccccc2C1	-6%	i
CC(=O)OC(C=C(C)C)C/C(C)=C/COc1c2ccoc2cc2oc(=O)ccc12 (centres undefined)	u	u
S=c1cn[nH]c2ccccc12	-6%	i
Cc1ccc(OCC(=O)N/N=C/c2ccc([N+](=O)[O-])o2)cc1	u	u
CCOC(=O)c1ccc(S(=O)(=O)N2CCN(CCC#N)CC2)cc1	-4%	-12%
CN(C)C(=O)CSc1nnc(NC(=O)CCc2ccccc2)s1	-27%	-16%
O=C(CNC(=O)c1ccccc1F)NNC(=O)c1ccccc1O	-10%	u
CCCCC(=O)Nc1nnc(S(=O)(=O)N(C)Cc2ccc(Cl)cc2)s1	2%	2%
COC(=O)C1=C(C(=O)OC)[N+]2=C3N(C(=O)NC2(C)C)[C@H](CO)C[C@@]32c3ccccc3N(Cc3ccccc3)[C@@H]12	-25%	u
Cc1cccc(NC(=O)N(C)Cc2cccs2)c1	-8%	-9%
CCCC(=O)NCC(c1cccs1)S(=O)(=O)c1ccc(Cl)cc1 (centres undefined)	-8%	-11%

Looked up by compound from the entries so far:
SMILES	Vaccinia Venus	Vaccinia mCherry
CC(=O)OC(C=C(C)C)C/C(C)=C/COc1c2ccoc2cc2oc(=O)ccc12 (centres undefined)	u	u
O=C(c1cc(Cl)ccc1[N+](=O)[O-])N1CCc2ccccc2C1	-6%	i

Later entries
SMILES	Vaccinia Venus	Vaccinia mCherry
O=C1C=C(c2ccc(-c3ccccc3)c(F)c2)C[C@@H](c2ccc3c(c2)OCO3)C1	-17%	-18%
CCCSc1sc(C(=O)OC)c(-c2cccs2)c1C#N	-11%	-5%
CCCC(C)NC(=O)COc1ccc(Sc2ccc(OCC(=O)NC(C)CCC)cc2)cc1 (centres undefined)	-23%	u
O=C(CN1CCN(c2ccccn2)CC1)Nc1ccc([N+](=O)[O-])cc1C(=O)Nc1ccccc1F	-15%	-2%
CCOC(=O)CC1COCCN1Cc1cn[nH]c1-c1ccc2c(c1)OCO2 (centres undefined)	-6%	-1%
Cc1ccc2oc(C(=O)NCc3ccc4c(c3)OCO4)c(C)c2c1	4%	x
CCOc1ccc(C(C)C)cc1S(=O)(=O)Nc1ccc(Cl)cn1	-3%	x
O=C(N/N=C/c1c(O)n(Cc2ccc(F)cc2)c(=S)[nH]c1=O)c1ccncc1	1%	17%
COc1ccc(C(=O)OCc2ccccc2F)cc1S(=O)(=O)N1CCCC1	-17%	-7%
COc1cccc(Nc2ccc3cc(S(=O)(=O)N4CCC(C)CC4)ccc3n2)c1	u	u
Cc1cccc(Nc2cc(C)nc(-n3nc(C)cc3C)n2)c1	-9%[7.34 µM]	-4%[7.34 µM]
O=C(Nc1ccc(S(=O)(=O)N2CCCC2)cc1)c1ccc(OCC2CCCO2)cc1 (centres undefined)	-14%	-4%
C=CCNC(=O)C1(S(=O)(=O)c2ccccc2)CC=CC1	-9%	i
CCn1c(S(=O)(=O)O)nc2ccccc21	-5%	-13%
COCc1c(C#N)c(NCCc2ccc(F)cc2)nc(C)c1[N+](=O)[O-]	-9%	-20%
CN(C)c1ccc(N=Nc2cccc3ccoc23)cc1	-6%	-6%
Cc1ccc(C(=O)Nc2nnc(COCCO)s2)cc1	0%	i
CCNC(=O)NC(=O)CSc1ccc2ccccc2c1	-12%	i
COc1ccc(Br)cc1/C=C/c1ccc2cccc(O)c2n1	-22%	-24%
CCOC(=O)c1c(-c2ccccc2)oc2ccc(NS(=O)(=O)c3ccc(C)cc3C)cc12	-8%	-15%
c1ccc(C2NCCc3[nH]cnc32)cc1 (centres undefined)	-11%	i
CCN(CC)C(=O)C1CCN(S(=O)(=O)c2ccc3oc4ccccc4c3c2)CC1	u	-24%
O=C1CC(c2ccc(F)cc2)c2c(n3c(nc4ccccc43)[nH]c2=O)N1 (centres undefined)	-1%[7.34 µM]	-5%[7.34 µM]
O=C(NNC(=O)c1ccncc1)Nc1ccc([N+](=O)[O-])cc1	-5%	-8%
COCc1cc(=O)[nH]c(Nc2nc3ccccc3o2)n1	-25%	-25%
COc1ccc(NC(=O)/C(C#N)=C/c2c(C)nn(-c3ccc(F)cc3)c2Cl)cc1Cl	-7%	-11%
CC(C)(C)c1ccc(S(=O)(=O)NCCN2CCOCC2)cc1	-3%	i
CCC(=O)N1CCN(c2nc3ccccc3s2)CC1	u	x
COc1ccc(CC(N)c2csc(Nc3cccc(OC)n3)n2)cc1 (centres undefined)	u	u
O=[N+]([O-])c1cccc2c([N+](=O)[O-])cccc12	-7%	i
COc1ccc(S(=O)(=O)N(C)CC(=O)Nc2ccccc2OC)cc1C	-11%	x
COc1ccccc1NC(=O)CSc1nnc(-c2ccoc2C)n1C	-2%	i
CCC(=NOCc1ccccc1)C(=O)NNS(=O)(=O)c1ccc(C)cc1	-5%	-18%
Cn1cc(S(=O)(=O)N2CCCCCC2)cc1C(=O)N1CCN(c2ccc(F)cc2)CC1	-13%	-9%
COc1cc(C(=O)Nc2nnc(C3=COCCO3)o2)cc(OC)c1OC	-2%	-5%
O=C(C1CC2CCC1C2)N1CCN(Cc2ccc3c(c2)OCO3)CC1 (centres undefined)	-20%	-4%
COc1ccc(-c2nc3ncccc3o2)cc1NC(=O)c1cccs1	-4%	8%
COc1ccc(OC)c(NC(=O)c2cnc(N3CCCCC3)c3ccccc23)c1	-10%	-13%
CCCCNC(=O)c1cc2nc(-c3ccc(OC)cc3)cc(C(F)(F)F)n2n1	u	-10%
COCC(=O)Nc1ccccc1NC(C)=O	-13%	-17%

One compound at a time, from the list above.
`O=C(Nc1ccc(F)c(F)c1)C(c1ccccc1)N1Cc2ccccc2C1=O` (centres undefined) in the list: Vaccinia Venus: -12%; Vaccinia mCherry: -4%
`Cc1ccccc1NC(=S)Nc1ccccc1` in the list: Vaccinia Venus: 0%; Vaccinia mCherry: -15%
`COCc1c(C#N)c(NCCc2ccc(F)cc2)nc(C)c1[N+](=O)[O-]` in the list: Vaccinia Venus: -9%; Vaccinia mCherry: -20%

The list continues:
SMILES	Vaccinia Venus	Vaccinia mCherry
COc1cccc(CNC(=O)c2ccc3c(c2)N(Cc2ccc(F)cc2Cl)C(=O)c2ccccc2S3)c1	-9%[7.34 µM]	-18%[7.34 µM]
Cc1ccc2c(CC(=O)OCC(=O)N(CC(C)C)c3c(N)n(Cc4ccccc4)c(=O)[nH]c3=O)coc2c1	-17%	-9%
O=C1CC(C(=O)Nc2ccccc2)N=C(N2CCCCC2)N1 (centres undefined)	-2%	-13%
C=C[C@@H]1c2cc(C)ccc2N(S(=O)(=O)c2ccc(C)cc2)[C@H](c2ccc(C(=O)OC)cc2)C1(C#N)C#N	-4%	i
N/C(=N\OC(=O)c1cccnc1)c1ccc(Cl)cc1Cl	-12%	i
COc1ccc(CN2CCSCC2)cc1C	-10%	-3%
COc1ccc(C2=C(C)C(=O)N(Cc3ccc(C(=O)Nc4cccc(F)c4)cc3)S2(=O)=O)cc1	-26%	-20%
CC1CCN(C(=O)c2cccc(S(=O)(=O)N3CCCc4ccccc43)c2)CC1	-8%	i
O=S(=O)(Nc1cccc(C(F)(F)F)c1)c1cnc[nH]1	-24%	i
Cc1ccc(CSCCNC(=O)C2CCN(S(=O)(=O)Cc3ccccc3)CC2)cc1	-4%	-3%
CCOc1ncccc1C(=O)OC(C)C(=O)Nc1ccc(CC)cc1 (centres undefined)	-1%	-5%
COc1ccccc1-c1cccc([C@@H]2C[C@H]3[C@H](CON3C)CN2S(=O)(=O)c2ccccc2C)c1	-8%	i
COc1ccc(NC(=O)CN2C(=O)C(C)N=C(c3ccccc3F)c3cc(Cl)ccc32)c(OC)c1 (centres undefined)	-8%	-2%
CN(C(=O)c1cccc(NC(=O)Cc2ccc(NC(=O)C3CCN(C(=O)CCc4ccccc4)CC3)cc2)c1)C1CCC1	-26%	i
Cc1sc2nc(CSC(C)C(=O)Nc3ccc(C(N)=O)cc3)[nH]c(=O)c2c1C (centres undefined)	1%	-11%
CN(Cc1ccccc1)C(=O)c1cccc(NC(=O)Cc2cccc(NC(=O)C3CCN(C(=O)c4ccccc4)CC3)c2)c1	-10%	-16%
CC1CCCCC12NC(=O)N(CC(=O)Nc1ccc(OC(F)F)cc1)C2=O (centres undefined)	-18%	i
Cc1ccccc1C(=O)N1CCC(c2nc3ccccc3s2)CC1	-4%	0%
Cc1nn(C(=O)C(C)N2C(=O)c3ccccc3C2=O)c(C)c1Br (centres undefined)	-5%	i
Cc1ccc(C)c(NC(=S)N2CCC(NC(=O)c3ccco3)CC2)c1	-12%	0%
O=C(NCc1cccc(Cl)c1)c1ccc(S(=O)(=O)Nc2cccc(C(F)(F)F)c2)cc1	-19%	-3%
COc1ccc(OCC(O)CNC(=O)Nc2ccccc2)cc1 (centres undefined)	6%	i
Cn1c(C(=O)NCCCN2CCN(c3ccccc3F)CC2)cc2c(=O)n(C)c3ccccc3c21	-22%	u
COc1ccc(CCn2c(O)c(C=NCc3cccnc3)c(=O)[nH]c2=O)cc1OC	-11%	-13%
Cc1ccc(CNC(=O)CC2Oc3ccc(Cl)cc3NC2=O)cc1 (centres undefined)	-11%	-12%
CC(C)(C)C1CCC(OC(=O)C[N+]2(C)CCCC2)CC1 (centres undefined)	-10%	-12%
Cc1ccc(CNC(=O)C2CCCN(S(=O)(=O)c3c(C)[nH]c(=O)[nH]c3=O)C2)cc1 (centres undefined)	-10%	i
CCC(CC)C(=O)Nc1cccc(C(=O)Nc2ccc3c(c2)OCO3)c1	-4%	-18%
Cc1ccc2nc(-c3cccnc3)c(NC3CCCCC3)n2c1	-16%	-3%
CCOc1nc2c(c(-c3cccs3)c1C#N)Cc1ccccc1-2	-13%	i
